# Mtb growth = M. tuberculosis H37Rv growth inhibitors, H37Rv strain (AID 1626). one-dose inhibition, % at 10 µM; IC50 in µM for titrated hits. 220,000 compounds, 0.95% hits. M. tuberculosis H37Rv growth inhibition; higher % means a stronger effect;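 active = confirmed in a dose series; inconclusive = inhibition above 80% but not taken into the dose series; inactive = below 80% or under 30% at every dose of the series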;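 also: bacteria incubated seven days before Alamar blue readout; 0% = bacteria only wells and 100% = bacteria with antibiotic wells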
# YopH inh = YopH (Yersinia) phosphatase inhibition; fluorescence Ex485/Em525; inhibition, %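 (about 10 µM by stock and volumes)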; 140,000 compounds, 0.16% hits;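 active = inhibition of 50% or more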;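 also: controls were vehicle for no effect and minimum signal wells for full effect; inactives centre near -20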
# Mtb bLac sens = beta-lactam sensitization of Mtb H37Rv | M. tuberculosis H37Rv growth with meropenem, percent inhibition; hits of this screen are not shown here | inhibition, % at 25 µM | 330,000 compounds, 0.27% hits;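 active = about 74% or more and at least 40 points above the plate without the antibiotic, then above 30% in a dose series; inconclusive = first-round hits that could not be retested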;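 also: growth measured after seven days incubation then overnight dye step; 0% = bacteria only wells and 100% = bacteria with antibiotic; twin plates without the antibiotic show which effects depend on it; some results filed as inactive read as strong as hits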
# Arbovirus inh = antivirals against arbovirus infection. AID 1251. inhibition, % at 10 µM. 200,000 compounds, 0.37% hits. arbovirus infection cell-based antiviral screen;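 active = inhibition from about 30%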;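 also: bluetongue infection of BSR cells; cell survival read as ATP light after 72 h; 0% = infected wells without compound and 100% = uninfected wells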
# RecA intein inh = Mtb RecA intein splicing inhibition; 290,000 compounds, 0.75% hits; cell-free RecA intein splicing, fluorescence; AID 2221; P9WHJ3; inhibition, %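 (about 9 µM by stock and volumes)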; in the data active = inhibition above about 30%; inconclusive = no clear call, values can overlap the other calls;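 also: 0% = vehicle wells and 100% = reference inhibitor control wells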
# Target sequence (P9WHJ3 whole entry, looked up): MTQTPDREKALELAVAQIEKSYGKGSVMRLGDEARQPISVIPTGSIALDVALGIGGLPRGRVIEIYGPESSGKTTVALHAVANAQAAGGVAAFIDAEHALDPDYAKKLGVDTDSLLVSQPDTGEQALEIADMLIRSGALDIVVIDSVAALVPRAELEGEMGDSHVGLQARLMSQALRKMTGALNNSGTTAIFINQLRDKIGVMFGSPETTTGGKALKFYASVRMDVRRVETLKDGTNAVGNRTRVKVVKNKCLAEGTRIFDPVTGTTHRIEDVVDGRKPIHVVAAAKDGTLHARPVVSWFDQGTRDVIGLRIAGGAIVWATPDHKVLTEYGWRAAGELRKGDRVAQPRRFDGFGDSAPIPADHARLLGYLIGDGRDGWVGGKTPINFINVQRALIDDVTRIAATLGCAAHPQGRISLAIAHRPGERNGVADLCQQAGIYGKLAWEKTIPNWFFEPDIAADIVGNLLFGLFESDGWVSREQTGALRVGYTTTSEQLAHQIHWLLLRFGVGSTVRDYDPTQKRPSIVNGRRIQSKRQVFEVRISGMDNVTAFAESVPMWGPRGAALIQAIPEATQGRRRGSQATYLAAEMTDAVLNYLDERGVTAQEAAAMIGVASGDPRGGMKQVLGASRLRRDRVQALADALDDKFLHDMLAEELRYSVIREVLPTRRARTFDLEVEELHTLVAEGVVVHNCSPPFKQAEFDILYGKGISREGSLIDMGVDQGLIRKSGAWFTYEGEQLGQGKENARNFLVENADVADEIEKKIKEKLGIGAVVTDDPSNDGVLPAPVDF
# Arbovirus inh repeat = also measured in Arbovirus inh; calls as there; inhibition, %; measured here: 10K subset replicate screen; many hits read low in the repeat;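 first of two repeat runs on a subset; 0% = infected and 100% = uninfected wells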
# Starred values were filed as active, the others as inactive; ? = inconclusive; . = no result given; & = joins results of further samples.
# Start of the listing, in advance, four compounds:
SMILES,Mtb growth,YopH inh,Mtb bLac sens,Arbovirus inh,RecA intein inh,others
O=C(NCC1CC1)[C@]1(C(F)(F)F)C[C@H](CCC2CCCCC2)CCCO1,-7%,.,-5,.,7.8,
CCCn1c(N2CCN(C)CC2)nc2c1c(=O)[nH]c(=O)n2C,6%,-28,0,-1,0.4,
O=C(Nc1ccccc1F)c1cc2nc(C(F)F)cc(C(F)F)n2n1,-2%,0,2,12,2.4,
Cc1nn2c(NCCOCCO)c3c(nc2c1-c1ccccc1)CCCC3,2%,-4,-4,-10,-0.9,

# The whole of this part, from the start:
SMILES,Mtb growth,YopH inh,Mtb bLac sens,Arbovirus inh,RecA intein inh,others
O=C(NCC1CC1)[C@]1(C(F)(F)F)C[C@H](CCC2CCCCC2)CCCO1,-7%,.,-5,.,7.8,
CCCn1c(N2CCN(C)CC2)nc2c1c(=O)[nH]c(=O)n2C,6%,-28,0,-1,0.4,
O=C(Nc1ccccc1F)c1cc2nc(C(F)F)cc(C(F)F)n2n1,-2%,0,2,12,2.4,
Cc1nn2c(NCCOCCO)c3c(nc2c1-c1ccccc1)CCCC3,2%,-4,-4,-10,-0.9,
CCc1nn(CC(=O)N2CCC(C)CC2)c(=O)c2cccn12,.,.,3,.,-1.1,
Oc1[nH]c2ccccc2c1N=NC(=S)NCCc1ccccc1,69%,-24,3,-14,16,
Cc1nc(N)c(Br)c(C)c1Br,3%,.,0,-1,0.1,
Cc1cc(F)ccc1NC(=O)C1CSC2(C)CCC(=O)N12 (stereo not drawn),.,.,-9,.,1.1,
COC(=O)c1[nH]c2ccccc2c1NC(=O)CN1CCCc2ccccc21,0%,-20,-5,-7,0.1,
Cc1cc(NS(=O)(=O)c2ccc(NC(=O)/C=C/c3ccccc3)cc2)no1,.,.,89,.,-0.7,
Cc1ccc(Cl)cc1N1CCN(C(=O)c2noc(C(C)C)c2[N+](=O)[O-])CC1,.,.,-3,.,-3.1,
COc1cccc2c1O/C(=N\O)C(C(=O)Nc1cccc(Br)c1)C2 (stereo not drawn),.,.,-8,.,1.2,
O=S(=O)(c1ccc(Cl)cc1)N1CCN=C1SCc1ccc(Cl)c(Cl)c1,-1%,-3,1,-1,-0.1,
CCC(CC)C(=O)Nc1nnc(S(=O)(=O)Nc2ccc(OC)cc2)s1,.,.,-2,.,0.2,
Cc1cc(=O)oc2c(C)c(OCC(=O)NCCCN3CCCC3=O)ccc12,.,.,3,.,-1.0,
CCOC(=O)C1CCN(S(=O)(=O)c2ccc3c(c2)N(C)C(=O)CC(=O)N3C)CC1,.,.,-1,.,-0.1,
COc1ccc(CCN(C)Cc2nc(-c3cnccn3)no2)cc1OC,-10%,.,-4,.,0.7,
CCC1CCCCN1Cc1ccc(CNS(=O)(=O)c2ccc3c(c2)oc(=O)n3C)o1 (stereo not drawn),3%,-18,-4,10,0.4,
Cc1ccc(NC(=O)CCCN2C(=O)/C(=C/C=C/c3ccccc3)SC2=S)cc1,1%,-26,-1,-13,-2.7,
Cc1nc2sc(C(c3ccccc3)N3CCN(c4ccccc4F)CC3)c(O)n2n1 (stereo not drawn),0%,-12,-1,2,1.1,
COc1ccc(CC(=O)Nc2ccc(OC(C)=O)cc2C(=O)O)cc1,3%,.,18,2,0.4,
O=c1cc(O)c(-c2cccc(C(F)(F)F)c2)c(Cl)[nH]1,.,.,5,9,-0.5,
CCOc1ccc(N2C(=O)C(CC(=O)Nc3ccc(F)cc3)N(Cc3ccccn3)C2=S)cc1 (stereo not drawn),14%,.,34,-18,1.4,
CCOc1ccc(C(=O)NC(=S)NCc2cccnc2)cc1,6%,-21,3,11,-0.6,
CNS(=O)(=O)c1cc2c3c(cccc3c1)C(=O)NC2=O,-3%,.,-3,-11,0.0,
Cc1cc(Br)cc(C=Nc2ccc(N3CCOCC3)cc2)c1O,.,.,-5,.,-10.0,
Cn1c(SCC(=O)Nc2ccc3[nH]c(=O)[nH]c3c2)nnc1-c1ccc(F)cc1,-10%,.,-1,.,0.7,
CCOC(=O)C1CCN(C(=O)Cc2ccc(C)cc2)CC1,-2%,-17,-5,-2,2.7,
CC(C)CN(C(=O)COC(=O)CN1C(=O)c2ccccc2C1=O)c1c(N)n(Cc2ccccc2)c(=O)[nH]c1=O,.,.,-4,.,-4.5,
CCC(C)NC(=O)C1CCN(c2nc(OC)nc(OC)n2)CC1 (stereo not drawn),-2%,-11,3,0,0.6,
CC(C)CN(C(=O)COC(=O)CCN1C(=O)c2ccccc2C1=O)C1CCS(=O)(=O)C1 (stereo not drawn),-4%,-6,-7,-1,1.2,
O=C(NC(=S)Nc1ccccc1C(F)(F)F)c1ccccc1F,9%,.,2,-1,1.3,
Cc1ccccc1NCc1nc2ccccc2n1C,.,.,5,.,-0.4,
CC(C)CNS(=O)(=O)c1ccc(CCC(=O)N2CCCC2)cc1,-1%,.,-2,8,-1.4,
Cc1nnc(SCC(=O)Nc2ccc(N3CCOCC3)cc2)n1-c1ccccc1,-5%,-85,30,14,-2.1,
Fc1ccccc1CN1CCCCCCC1,-8%,-19,-5,0,0.4,
O=C1C(=O)N(c2ccc(O)cc2)C(c2ccccc2[N+](=O)[O-])/C1=C(\O)c1ccccc1 (stereo not drawn),-2%,.,0,.,0.8,
Cc1cccc(CSc2nnc(-c3ccco3)n2C)c1,-5%,-48,-15,-6,-0.9,
O=C1Nc2ccccc2C(=O)N2[C@H](c3ccc(F)cc3)[C@@H]3C(=O)N(Cc4ccccc4)C(=O)[C@@H]3[C@H]12,.,.,11,.,3.2,
Cc1coc2c1c(C)cc1oc(=O)c(CC(=O)NCCC(=O)O)c(C)c12,.,.,10,.,-0.4,
Cc1ccc(-n2nnc3c(=O)n(CC(=O)N4CCOCC4)cnc32)cc1,3%,-22,0,0,-0.5,Arbovirus inh repeat=0
CC(CC(=O)N1CCN(c2ccc(C(F)(F)F)cn2)CC1)n1ccnc1 (stereo not drawn),2%,.,-1,17,-0.1,
CN1CC(=O)NC1=NC(=O)c1ccc(Cl)c(S(=O)(=O)N2CCCCCC2)c1,18%,-58,13,-10,3.3,
Cc1ccc(S(=O)Cc2ccc(C(=O)N3CCN(C(=O)c4ccco4)CC3)o2)cc1 (stereo not drawn),.,.,-7,.,0.1,
CCOC(=O)C1=C(c2ccccc2)OC(N)=C(C#N)C1c1ccco1 (stereo not drawn),-2%,-36,1,4,-3.1,
COC(=O)N/N=C/c1cn(CC(C)COc2ccccc2)c2ccccc12 (stereo not drawn),10%,13,2,-28,11,
O=C(COC(=O)CCN1C(=O)C2CC=CCC2C1=O)NCCc1ccccc1 (stereo not drawn),.,.,-2,.,19,
O=C(CC1(c2ccc(Cl)cc2)C2CC3CC(C2)CC1C3)NCCO (stereo not drawn),0%,.,-2,-14,1.6,

# Brought forward from above: 3 compounds; new compounds follow.
SMILES,Mtb growth,YopH inh,Mtb bLac sens,Arbovirus inh,RecA intein inh,others
COC(=O)N/N=C/c1cn(CC(C)COc2ccccc2)c2ccccc12 (stereo not drawn),10%,13,2,-28,11,
O=C(COC(=O)CCN1C(=O)C2CC=CCC2C1=O)NCCc1ccccc1 (stereo not drawn),.,.,-2,.,19,
O=C(CC1(c2ccc(Cl)cc2)C2CC3CC(C2)CC1C3)NCCO (stereo not drawn),0%,.,-2,-14,1.6,
Cc1ccc(C(=O)N/C(=C\c2ccc(-c3cccc([N+](=O)[O-])c3)o2)C(=O)NC(C)(C)C)cc1,22%,-35,10,-6,1.6,
Cn1c(CN2CCN(c3cccc(Cl)c3)CC2)nc2ccccc21,5%,-25,11,12,5.9,
Cc1cc(C(=O)c2cccs2)c(N)s1,2%,15,15,-13,2.8,
CC(C)c1nnc(NC(=O)CCC2CCCCC2)s1,.,.,5,.,0.7,
CCOC(=O)C1CCN(C(=O)c2cn(CCOC)c(=O)c3c2c2ccccc2n3C)CC1,3%,-39,4,12,0.5,
C/C(=N\NC(=O)OC(C)(C)C)c1ccc(-n2ccnc2)cc1,-1%,.,3,6,-3.8,
CSc1ccc(CCNC(=O)c2cc(C)nn2-c2ccccc2)cc1,16%,.,92,.,0.7,
COC(=O)c1ccc(N)nc1,4%,.,4,4,0.2,
CCOc1cc(/C=C2\SC(N3CCCCC3)=NC2=O)ccc1O,.,.,35,.,-5.3,
CC1(C)Cc2noc(N)c2C(C)(C)N1OC(=O)c1cccs1,-12%,-31,3,-2,-0.4,
Cc1[nH]c2ccc(OC(=O)N3CCOCC3)cc2c1C(=O)OC(C)C,-5%,2,-1,24,-1.8,
COCCN1CCN(C(=O)C2CCC(=O)N(Cc3cccc(C(F)(F)F)c3)C2)CC1 (stereo not drawn),.,.,17,.,-2.4,
O=C(C1CCC(CNc2c(N3CCCCC3)c(=O)c2=O)CC1)N1CCCCC1 (stereo not drawn),?,-44,94,0,-3.0,Arbovirus inh repeat=0
COc1nc(NCc2ccco2)nc(N2CCC(C)CC2)n1,3%,-15,2,-1,1.7,
O=S1(=O)N=C(Nc2nncs2)c2ccccc21,-1%,-15,0,2,-4.4,
COc1ccc(-c2nnc(N3CCC(C)CC3)c3ccccc23)cc1,.,-2,3,-6,-0.9,
COc1ccc(C(=O)Nc2ccc(N3CCN(C(=O)c4ccccc4)CC3)cc2)cc1[N+](=O)[O-],6%,.,2,-17,.,
CC1=CC(C)(C)NC(=S)N1NC(=O)c1ccccc1Cl,-8%,.,-6,.,-0.6,
COc1ccc(OCCCC(=O)N(C)CC(=O)Nc2ccccc2Cl)cc1,.,.,-18,.,-3.7,
Cc1c(C(=O)NCCSCc2cccc(C(F)(F)F)c2)cnn1-c1ccc(Cl)cc1,2%,.,73,.,3.3,
CC(C)CC(=O)Nc1ccc2ccccc2c1,-5%&85%,.,57,1,-0.1,
Cc1ccc(C(=O)NCCc2nnc3ccc(SCC(=O)N4CCCCC4)nn23)cc1,.,.,-2,.,-0.1,
CC1CCN(c2nc3ccccc3n2CC(=O)c2ccccc2)CC1,8%,.,6,-10,2.2,
Cc1cc(C)n(C(C)n2nc(C)cc2C)n1,4%,-22,-3,0,-3.2,

# Six entries out of the list, arranged by SMILES length, ascending.
SMILES,Mtb growth,YopH inh,Mtb bLac sens,Arbovirus inh,RecA intein inh,others
Cc1cc(C)n(C(C)n2nc(C)cc2C)n1,4%,-22,-3,0,-3.2,
O=S1(=O)N=C(Nc2nncs2)c2ccccc21,-1%,-15,0,2,-4.4,
CC1CCN(c2nc3ccccc3n2CC(=O)c2ccccc2)CC1,8%,.,6,-10,2.2,
COc1ccc(-c2nnc(N3CCC(C)CC3)c3ccccc23)cc1,.,-2,3,-6,-0.9,
COc1ccc(OCCCC(=O)N(C)CC(=O)Nc2ccccc2Cl)cc1,.,.,-18,.,-3.7,
COc1ccc(C(=O)Nc2ccc(N3CCN(C(=O)c4ccccc4)CC3)cc2)cc1[N+](=O)[O-],6%,.,2,-17,.,

# Remaining list, next part
SMILES,Mtb growth,YopH inh,Mtb bLac sens,Arbovirus inh,RecA intein inh,others
CN=C(Nc1cc(Cl)ccc1Cl)SC1CC(=O)N(c2ccc(C(=O)OC)cc2)C1=O (stereo not drawn),25µM*,-8,91,-29,7.5,
CC1CC(C)CN(C(=O)c2ccc3c(c2)N(Cc2ccccc2)CCS3)C1 (stereo not drawn),8%,-35,-7,-46,35*,
N#CCCCC#Cc1ccc2c(c1)COc1c3ccccc3nn1-2,.,.,94,.,1.8,
COc1ccc(OC)c(N/C(C)=C/C(=O)c2ccc(C)o2)c1,-3%,8,9,6,-3.1,
COC1(OC)N=C(N)C2(C#N)C(c3ccccc3)NC(C)=CC12C#N (stereo not drawn),-4%,-6,0,8,-8.6,
CCCS(=O)(=O)N1CCN=C1SCc1cccc(F)c1,.,.,-4,.,-0.6,
O=C(NCCS(=O)(=O)NCc1ccccc1)c1ccccc1,.,.,-12,.,0.3,
Cc1ccc(N2CN=C(c3ccccc3)NC2=S)cc1,2%,12,0,-8,2.2,
COc1ccc(-c2nc(CS(=O)CC(=O)NCCCN3CC(C)CC(C)C3)c(C)o2)cc1OC (stereo not drawn),2%,-37,-10,5,0.2,
C=C(C)c1cccc(C(C)(C)NC(=O)NCc2ccc(OC)c(OC)c2)c1,0%,-46,-10,2,-0.4,
CCC1C(=O)NCCN1C(=O)CCc1nnc(CCc2ccc(OC)cc2)o1 (stereo not drawn),.,.,-4,.,-5.3,
Cc1ccc(N2C(S)=C(C#N)C(=O)NC2c2ccco2)cc1 (stereo not drawn),-7%,.,-3,-2,-0.6,

# Screens: PubChem BioAssay, several laboratories

# An excerpt; the hit share may differ from the screen's.
